Compound activity (PubChem)
Vif A3G: inhibitors of Vif binding to APOBEC3G peptide, primary screen, biochemical, TR-FRET, GST-Vif 1-94, biotin-A3G peptide, dose response retest (AID 1117319). TR-FRET GST-Vif / biotin-A3G peptide binding; higher % means a stronger effect; test concentration not given here; strong numbers were not always called active. inhibition, %, or IC50 in µM where a hit was titrated. hit rate 0.57% among 260,000;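 active = above the screen mean plus three standard deviations and confirmed in dose response; inconclusive = results disagree or hit not tested in dose response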;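 note: Vif residues 1-94 fused to GST binding biotinylated APOBEC3G peptide 110-148; 0% = full assay without inhibitor and 100% = GST in place of GST-Vif; retest series ran down from 100 µM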
T cruzi inh: T. cruzi replication inhibition. hit rate 1.4% among 300,000. T. cruzi beta-gal in NIH3T3, luminescence, 90 h. inhibition, % (test concentration not listed);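 active = mean inhibition across valid replicates above about 55%, limit read from the data; inconclusive = mean below that limit but half or more replicates reach it; inactive = mean below it, under half of replicates reach it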;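 note: signal also drops with host cell toxicity which is not excluded here; 0% = plate median of DMSO wells and 100% = zero luminescence signal; higher percent means less beta-gal luminescence so fewer parasites; stock transfer was 50 nL into about 50 µL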
RanGTP-Impb inh: disruptors of Ran-importin-beta complex formation – biochemical, FRET, CFP-Ran, YFP-importin-beta, homogeneous, primary screen; hit rate 1.1% among 300,000; cell-free CFP-Ran/YFP-importin-beta FRET ratio; inhibition, % (test concentration not listed);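 active = most replicates above 15%; inconclusive = exactly half above 15%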;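 note: 0% = DMSO wells and 100% = Ran loaded with GDP instead of GTP; wells of about 40 µL received 100 nL stock; the first replicate is given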
Calb FLC: affects C. albicans growth with fluconazole. growth inhibition, % (no concentration beside the values). C. albicans CaCi-2 (fluconazole-resistant clinical isolate) + fluconazole, Alamar Blue growth, 48 h. AID 1979. hit rate 0.57% among 300,000;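 active = most replicates above 75%; inconclusive = exactly half above 75%; inactive = most below 75%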;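 note: all wells also contain fluconazole at 8 µg/ml as a sub-toxic cotreatment; 0% = median of DMSO wells and 100% = median of geldanamycin control wells; wells of about 8 µL received 7.5 nL stock; the first replicate is given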
LANA-H2A inh: blocks KSHV LANA binding to histone H2A/H2B | Q9QR71 | cell-free LANA-H2A/H2B peptide, fluorescence polarization | inhibition, % (no concentration beside the values) | hit rate 0.6% among 320,000; in the data active = inhibition mostly above about 10%, no sharp cut-off; inactive = mostly below about 6.7%;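 note: stock transfer was 7.5 nL into about 10 µL; 0% = median of vehicle wells and 100% = median of positive control wells; one replicate is shown; the record names a cut of 25% in any replicate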
Bfl-1 A1 inh: inhibitors of the anti-apoptotic protein A1, read as caspase activation. hit rate 0.066% among 330,000. caspase activation, % (concentration not given with the values). MEF A1-2A-BIM cells, Caspase-Glo 3/7 luminescence, 3 h; percent of clofoctol response, vehicle zero;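 active = over half of replicate activation scores above 10%, or exactly half above 10 with the replicate mean above 10; inconclusive = replicate mean below 10 yet half the replicates above 10; inactive = over half of replicates below 10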;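 note: wells of about 30 µL received 50 nL stock; many hits fall short of the cut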
Beta cell apopt: blocks beta cell apoptosis. hit rate 0.8% among 300,000. INS-1E cytokine-induced death, ATP luminescence, 48 h; percent of positive-control rescue, neutral wells zero. AID 435005. protection from apoptosis, % (test concentration not listed);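 active = all replicates at 75% or more, or half of them and the mean; inconclusive = half reach 75% but not the mean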;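 note: 0% = cytokine-treated negative control wells and 100% = positive control rescue; higher means more ATP so stronger rescue from cytokine killing; wells of about 40 µL received 100 nL stock; the first replicate is given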
MLL AF4-AF9 inh: blocks AF4 peptide binding to human AF9 | P42568 | AlphaScreen, biotin-AF4 peptide binding to FLAG-AF9 | inhibition, % at 10 µM | hit rate 0.47% among 350,000 | AID 651704;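 active = every replicate reaching a set inhibition limit, whatever the replicate mean, cut at about 25% in these data; inconclusive = mean inhibition reaches that limit but some replicates miss it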;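 note: 0% = plate neutral control median and 100% = total signal loss; the record names both 10 and 1 µM as test concentration; the first replicate is given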
Target sequence (P42568 whole entry, looked up): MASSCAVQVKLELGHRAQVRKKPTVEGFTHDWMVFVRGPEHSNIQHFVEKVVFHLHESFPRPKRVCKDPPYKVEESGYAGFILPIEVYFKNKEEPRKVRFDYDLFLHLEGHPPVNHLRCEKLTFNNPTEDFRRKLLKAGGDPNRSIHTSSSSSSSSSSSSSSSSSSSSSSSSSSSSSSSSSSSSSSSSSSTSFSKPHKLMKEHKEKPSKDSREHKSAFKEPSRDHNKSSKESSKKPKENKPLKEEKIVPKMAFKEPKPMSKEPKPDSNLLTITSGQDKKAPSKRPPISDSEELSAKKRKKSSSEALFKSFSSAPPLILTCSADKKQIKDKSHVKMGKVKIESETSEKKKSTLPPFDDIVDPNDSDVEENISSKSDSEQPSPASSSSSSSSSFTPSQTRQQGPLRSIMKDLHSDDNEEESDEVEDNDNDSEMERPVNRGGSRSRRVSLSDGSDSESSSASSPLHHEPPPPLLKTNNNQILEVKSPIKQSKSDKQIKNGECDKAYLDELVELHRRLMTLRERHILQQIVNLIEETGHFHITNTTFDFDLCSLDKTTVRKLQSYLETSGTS
The depositor's hits bear a star.

`Cc1ccc(OCCC(=O)OCC(=O)Nc2ccc3c(c2)OCCO3)cc1` gave Vif A3G 1.4%, T cruzi inh -7.2, RanGTP-Impb inh -1.0, Calb FLC 7.3, LANA-H2A inh 5.8, Bfl-1 A1 inh -0.4, Beta cell apopt 1.0 and MLL AF4-AF9 inh -1.3.
For CSc1nnc(NC(=O)c2nc(S(=O)(=O)Cc3ccccc3F)ncc2Cl)s1 the results were T cruzi inh -20.8, RanGTP-Impb inh 2.8, Calb FLC -7.0, LANA-H2A inh -1.0, Bfl-1 A1 inh 0.9, Beta cell apopt -42.8 and MLL AF4-AF9 inh -0.2.
`CN(CC(=O)Nc1nccs1)S(=O)(=O)c1ccc(F)cc1` gave Vif A3G 4.8%, T cruzi inh -7.4, RanGTP-Impb inh 4.4, Calb FLC -4.1, LANA-H2A inh 2.0, Bfl-1 A1 inh -0.2 and Beta cell apopt -1.3.
For O=C(NC(Cc1c[nH]c2ccccc12)c1nnc2n1CCCCC2)c1ccccc1Cl (stereo not given) the results were Vif A3G 8.7%, T cruzi inh -5.6, RanGTP-Impb inh 0.4, Calb FLC -0.7, LANA-H2A inh -4.1, Bfl-1 A1 inh 0.5 and Beta cell apopt 1.8.
`COC(=O)C1=C(C)N(C)C(=O)NC1c1cc2c(cc1[N+](=O)[O-])OCO2` (stereo not given) gave T cruzi inh -12.1, RanGTP-Impb inh -2.5, Calb FLC 1.7, LANA-H2A inh 5.0, Bfl-1 A1 inh -0.2, Beta cell apopt 4.7 and MLL AF4-AF9 inh -3.3.
`CCCC(=O)OCC(=O)Nc1ccc2[nH]c(=O)[nH]c2c1` gave Vif A3G inconclusive, T cruzi inh 5.8, RanGTP-Impb inh -1.0, Calb FLC -1.4, LANA-H2A inh 4.0, Bfl-1 A1 inh -0.5, Beta cell apopt 0.5 and MLL AF4-AF9 inh 2.5.
`O=C1NC(=Nc2ccccc2)S/C1=C\c1ccccc1` gave T cruzi inh -13.9, RanGTP-Impb inh -0.2, Calb FLC -2.8, LANA-H2A inh 2.0, Bfl-1 A1 inh -0.7, Beta cell apopt 1.4 and MLL AF4-AF9 inh -3.8.
`COc1ccc(C(=O)NNc2ccccc2)cc1OC` gave Vif A3G -1.7%, T cruzi inh 3.1, Calb FLC 106.1*, LANA-H2A inh 4.6, Bfl-1 A1 inh 0.0, Beta cell apopt -9.2 and MLL AF4-AF9 inh 5.8.
`Cc1ccc(OCc2nc(C#N)c(N3CCCC3)o2)cc1` gave Vif A3G 32.1%, T cruzi inh -7.0, RanGTP-Impb inh -3.2, Calb FLC -14.6, LANA-H2A inh 0.1, Bfl-1 A1 inh 0.5 and Beta cell apopt 2.4.
`CCNc1ccc(S(=O)(=O)N(C)C)cc1NCC(=O)Nc1ccc(F)c(Cl)c1` gave Vif A3G 22.3%, T cruzi inh -5.9, RanGTP-Impb inh 0.3, Calb FLC -4.9, LANA-H2A inh 3.2, Bfl-1 A1 inh -0.8 and Beta cell apopt 29.6.
Screening Cc1ccc(C(CNC(=O)Nc2cccc(C)c2)N2CCN(C)CC2)cc1 (stereo not given) returned T cruzi inh 21.4, RanGTP-Impb inh 7.2, Calb FLC 34.2, LANA-H2A inh 7.1, Bfl-1 A1 inh -0.3, Beta cell apopt -2.6 and MLL AF4-AF9 inh 4.1.
Screening COc1ccc(C(CNC(=O)c2c(C)nn(Cc3ccc(C)cc3)c2Cl)N2CCOCC2)cc1 (stereo not given) returned Vif A3G 5.8%, LANA-H2A inh -6.7, Bfl-1 A1 inh -0.1, Beta cell apopt -1.9 and MLL AF4-AF9 inh -8.9.
Screening Cc1nsc2c1ccc1ccccc12 returned T cruzi inh -15.0, RanGTP-Impb inh -2.3, Calb FLC -20.2, LANA-H2A inh -0.6, Bfl-1 A1 inh -1.1, Beta cell apopt 0.7 and MLL AF4-AF9 inh -1.2.
`O=c1c2ccccc2c2ccccc2c(=O)n1-c1ccccc1` gave T cruzi inh -12.5, RanGTP-Impb inh inconclusive, Calb FLC -4.8, LANA-H2A inh -3.1, Bfl-1 A1 inh 0.4, Beta cell apopt -1.9 and MLL AF4-AF9 inh -1.9.
`CC(C)CC(=O)Nc1ccc(N2CCN(C(=O)c3cccs3)CC2)cc1` gave Vif A3G 6.0%, T cruzi inh -8.7, RanGTP-Impb inh -1.8, Calb FLC -2.2, LANA-H2A inh 4.4, Bfl-1 A1 inh 1.0, Beta cell apopt 8.7 and MLL AF4-AF9 inh 1.9.
`Cc1ccc(NC(=O)c2cc(N3C(=O)C4CC=CCC4C3=O)ccc2N2CCCCC2)cc1` (stereo not given) gave Vif A3G 4.8%, T cruzi inh 9.0, RanGTP-Impb inh -1.4, Calb FLC 4.6, LANA-H2A inh 2.7, Bfl-1 A1 inh 1.3 and Beta cell apopt -2.5.
CC(C)n1cc(CN2CCC(n3nccc3NC(=O)C3CCCC3)CC2)cn1 was read as Vif A3G 0.4%, T cruzi inh 22.8, RanGTP-Impb inh 3.9, Calb FLC -8.4, LANA-H2A inh -3.0, Bfl-1 A1 inh 0.1, Beta cell apopt 2.1 and MLL AF4-AF9 inh -1.8.
For O=C(NCCCN1CCOCC1)/C(=C/c1cccs1)NC(=O)c1ccccc1 the results were Vif A3G 19.5%, T cruzi inh -1.8, RanGTP-Impb inh 1.4, Calb FLC -0.7, LANA-H2A inh 1.4, Bfl-1 A1 inh 0.8, Beta cell apopt 0.5 and MLL AF4-AF9 inh -5.7.
Screening COC(=O)c1sccc1NC(=O)CSc1nnnn1-c1ccccc1C returned Vif A3G -24.5%, T cruzi inh 18.3, RanGTP-Impb inh 0.1, Calb FLC -3.1, LANA-H2A inh -4.9, Bfl-1 A1 inh -0.5 and Beta cell apopt 2.8.
For CCc1nnc(NC(=O)CCC(=O)N2CCN(c3cc(Cl)ccc3C)CC2)s1 the results were T cruzi inh -10.9, RanGTP-Impb inh 6.1, Calb FLC -2.6, LANA-H2A inh -3.4, Bfl-1 A1 inh -1.2 and MLL AF4-AF9 inh 3.2.
For CCCS(=O)(=O)c1nc(S(=O)(=O)c2ccc(C)cc2)c(NCCCN2CCOCC2)s1 the results were Vif A3G 4.9%, T cruzi inh 1.4, RanGTP-Impb inh 4.2, Calb FLC -1.1, LANA-H2A inh 2.9, Bfl-1 A1 inh 1.4 and Beta cell apopt -1.0.
Screening COc1cccc(NC(=O)Cn2nnc(-c3ccccc3N)n2)c1 returned Vif A3G 12.3%, T cruzi inh 17.7, RanGTP-Impb inh 1.4, Calb FLC -14.3, LANA-H2A inh 2.2, Bfl-1 A1 inh 0.0 and Beta cell apopt -5.3.
`CN1CCN(S(=O)(=O)c2ccc(NC(=O)C(C)(C)C)cc2)CC1` gave Vif A3G -1.2%, T cruzi inh -7.2, RanGTP-Impb inh -3.8, Calb FLC -7.5, LANA-H2A inh 2.5, Bfl-1 A1 inh 1.2, Beta cell apopt -2.5 and MLL AF4-AF9 inh 1.4.
CCCC[C@H](CC(=O)c1ccccc1)[C@@H](OC(C)=O)C(=O)Oc1c(C(C)C)cccc1C(C)C was read as LANA-H2A inh 2.1, Bfl-1 A1 inh 1.7, Beta cell apopt 5.7 and MLL AF4-AF9 inh -4.0.
For O=C(N/N=C/c1cccs1)c1cc(-c2ccncc2)nc2ccccc12 the results were Vif A3G 3.1%, T cruzi inh -45.9, RanGTP-Impb inh 5.6, Calb FLC 16.6, LANA-H2A inh 2.2, Bfl-1 A1 inh 1.3 and Beta cell apopt -1.1.
O=C(CN1CC[n+]2c(-c3cccs3)csc21)c1ccc(Br)cc1 was read as Vif A3G -7.1%, T cruzi inh 60.0*, RanGTP-Impb inh 1.9, Calb FLC 6.6, LANA-H2A inh 2.1, Bfl-1 A1 inh -0.4, Beta cell apopt 8.6 and MLL AF4-AF9 inh 5.7.
COc1cc([C@@H]2CC=C(C(=O)O)[C@H](c3ccc(F)cc3)N2S(=O)(=O)c2ccc(C)cc2)cc(OC)c1OC was read as LANA-H2A inh 0.6, Bfl-1 A1 inh -0.1, Beta cell apopt 3.9 and MLL AF4-AF9 inh -9.9.
Screening Cc1nc(NC(=S)NC(=O)COc2ccccc2Cl)ccc1Br returned Vif A3G 31.1%, T cruzi inh -4.5, RanGTP-Impb inh 5.2, Calb FLC 6.5, LANA-H2A inh 3.9, Bfl-1 A1 inh -0.1, Beta cell apopt 5.9 and MLL AF4-AF9 inh -5.5.
`O=C(Nc1ccc(NC(=O)C2CC2)cn1)c1ccccc1Cl` gave Vif A3G -3.7%, T cruzi inh -0.3, RanGTP-Impb inh -0.1, Calb FLC 6.6, LANA-H2A inh 2.4, Bfl-1 A1 inh 0.9 and Beta cell apopt -0.4.
For Cc1sc(N/N=C/c2cccnc2)nc1-c1ccc(Cl)cc1 the results were Vif A3G 20.7%, T cruzi inh 54.0, RanGTP-Impb inh -3.5, Calb FLC -8.3, LANA-H2A inh -3.8, Bfl-1 A1 inh -1.1 and Beta cell apopt 2.8.
`COc1ccc(-c2nnc(SCC(=O)Nc3cccc(Cl)c3)o2)cc1` gave Vif A3G inconclusive, T cruzi inh -3.5, RanGTP-Impb inh 0.3, Calb FLC -5.7, LANA-H2A inh 1.5, Bfl-1 A1 inh -0.6 and Beta cell apopt -7.9.
`COc1ccc(CNC(=O)c2ccc(Br)cc2)cc1` gave Vif A3G inconclusive, T cruzi inh -8.4, RanGTP-Impb inh 7.7, Calb FLC 10.3, LANA-H2A inh 3.5, Bfl-1 A1 inh -1.0, Beta cell apopt -2.3 and MLL AF4-AF9 inh -1.0.
Screening N#CC1C(=O)NC(N2CCN(c3ccccc3)CC2)=NC12CCCCC2 (stereo not given) returned Vif A3G -2.1%, T cruzi inh -2.2, RanGTP-Impb inh -0.1, Calb FLC -6.6, LANA-H2A inh -1.5, Bfl-1 A1 inh 0.7 and Beta cell apopt -3.8.
`Cc1c(C=N)c(O)n(C)c(=O)c1C#N` gave Vif A3G -10.2%, T cruzi inh 1.3, RanGTP-Impb inh -1.3, Calb FLC 0.8, LANA-H2A inh -2.0, Bfl-1 A1 inh -0.2, Beta cell apopt -2.7 and MLL AF4-AF9 inh 2.0.
`O=C(O)c1cccnc1SC1CC(=O)N(c2ccccc2)C1=O` (stereo not given) gave T cruzi inh -10.3, RanGTP-Impb inh -0.5, Calb FLC 10.2, LANA-H2A inh 3.8, Bfl-1 A1 inh 2.4, Beta cell apopt 0.3 and MLL AF4-AF9 inh -25.9.
Screening O=C(CCN1C(=O)c2ccccc2C1=O)NCc1cccc(Cl)c1 returned T cruzi inh 2.6, RanGTP-Impb inh 4.1, Calb FLC 3.4, LANA-H2A inh 1.2, Bfl-1 A1 inh 0.2, Beta cell apopt -6.1 and MLL AF4-AF9 inh -0.5.
Cc1ccc(N(CC(=O)NC2CCCC2)C(=O)c2nsc(Cl)c2Cl)cc1 was read as T cruzi inh 8.7, RanGTP-Impb inh 0.9, Calb FLC -0.5, LANA-H2A inh 1.8, Bfl-1 A1 inh -0.4, Beta cell apopt 1.5 and MLL AF4-AF9 inh 3.6.
Screening COC(=O)[C@@]12CCCCN1[C@H](c1ccc(-c3ccc(OC)cc3)c(OC)c1)[C@@H]1C(=O)N(C)C(=O)[C@@H]12 returned LANA-H2A inh -1.6, Bfl-1 A1 inh -0.3, Beta cell apopt -12.3 and MLL AF4-AF9 inh 5.0.
For CCOc1ccccc1-n1c(SCC(=O)NC(C)CC)nnc1-c1ccoc1C (stereo not given) the results were Vif A3G inconclusive, T cruzi inh 13.1, RanGTP-Impb inh 3.8, Calb FLC 0.2, LANA-H2A inh -2.3, Bfl-1 A1 inh -0.2 and Beta cell apopt -1.6.
Screening CCCCN(C(=O)c1cnc(C)cn1)c1c(N)n(CCC)c(=O)[nH]c1=O returned Vif A3G -11.5%, LANA-H2A inh -4.8, Bfl-1 A1 inh -0.2, Beta cell apopt -2.7 and MLL AF4-AF9 inh -1.6.

Compounds as they come; 4.3% or so of the library scored in one or more.
